T cruzi inh = blocks replication of Trypanosoma cruzi. inhibition, % (no concentration beside the values). hit rate 1.4% among 300,000. AID 1885. T. cruzi beta-gal in NIH3T3, luminescence, 90 h;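 active = mean inhibition across valid replicates above about 55%, limit read from the data; inconclusive = mean below that limit but half or more replicates reach it; inactive = mean below it, under half of replicates reach it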;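 also: signal also drops with host cell toxicity which is not excluded here; 0% = plate median of DMSO wells and 100% = zero luminescence signal; higher percent means less beta-gal luminescence so fewer parasites; stock transfer was 50 nL into about 50 µL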
Bfl-1 A1 inh = inhibitors of the anti-apoptotic protein A1, read as caspase activation. AID 2462. hit rate 0.066% among 330,000. caspase activation, % (no concentration beside the values). MEF A1-2A-BIM cells, Caspase-Glo 3/7 luminescence, 3 h; percent of clofoctol response, vehicle zero;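 active = over half of replicate activation scores above 10%, or exactly half above 10 with the replicate mean above 10; inconclusive = replicate mean below 10 yet half the replicates above 10; inactive = over half of replicates below 10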;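 also: wells of about 30 µL received 50 nL stock; many hits fall short of the cut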
ALR H2O2 inh = inhibitors of human sulfhydryl oxidase ALR; purified ALR, DTT oxidation, H2O2 HRP-luminol luminescence; inhibition, % (test concentration not listed); hit rate 3.8% among 290,000;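 active = mean and each replicate at 75% or more; inconclusive = only one of the two met; inactive = neither met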;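 also: stock transfer was 7.5 nL into about 7.5 µL; 0% = neutral wells and 100% = wells with inactivated enzyme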
Target sequence (P55789 whole entry, looked up): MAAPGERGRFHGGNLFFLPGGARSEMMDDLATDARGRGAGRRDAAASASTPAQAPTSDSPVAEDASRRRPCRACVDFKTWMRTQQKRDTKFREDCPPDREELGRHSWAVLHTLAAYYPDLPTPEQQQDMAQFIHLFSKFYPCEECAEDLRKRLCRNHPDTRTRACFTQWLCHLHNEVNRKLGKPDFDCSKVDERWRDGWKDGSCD
Beta apoptosis = blocks beta cell apoptosis; INS-1E cytokine-induced death, ATP luminescence, 48 h; percent of positive-control rescue, neutral wells zero; protection from apoptosis, % (no concentration beside the values); hit rate 0.8% among 300,000; AID 435005;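 active = all replicates at 75% or more, or half of them and the mean; inconclusive = half reach 75% but not the mean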;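 also: 0% = cytokine-treated negative control wells and 100% = positive control rescue; higher means more ATP so stronger rescue from cytokine killing; wells of about 40 µL received 100 nL stock; the first replicate is given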
rRNA inh HTS = inhibits bacterial ribosomal RNA function over humanized ribosomes. hit rate 1.6% among 350,000. AID 720706. GFP signal change (wild-type ribosome), % (no concentration beside the values). E. coli WT GFP vs humanized-ribosome RFP mutants, fluorescence, 24 h; active compounds read low; DMSO median 0, no signal -100;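 active = significant combined selectivity score with lowered wild-type GFP, culture density cut under 30%, mutant RFP and density less affected; inactive = any of these conditions unmet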; also: one replicate is shown; some compounds called inactive have numbers as strong as hits
B2AR ag = activates human beta-2 adrenergic receptor causing internalization | response, % (no concentration beside the values) | hit rate 0.43% among 340,000 | Am2.2-beta2AR cells, FAP receptor internalization, flow cytometry; reference of the scale not given here | P07550;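 active = response above a set limit, near 3 SD of response in nonfluorescent compounds, cut at about 42% in these data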;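 also: stock transfer was 100 nL into about 11 µL; a reference agonist was the positive control; negative values mostly stem from fluorescent compounds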
Target sequence (P07550 whole entry, looked up): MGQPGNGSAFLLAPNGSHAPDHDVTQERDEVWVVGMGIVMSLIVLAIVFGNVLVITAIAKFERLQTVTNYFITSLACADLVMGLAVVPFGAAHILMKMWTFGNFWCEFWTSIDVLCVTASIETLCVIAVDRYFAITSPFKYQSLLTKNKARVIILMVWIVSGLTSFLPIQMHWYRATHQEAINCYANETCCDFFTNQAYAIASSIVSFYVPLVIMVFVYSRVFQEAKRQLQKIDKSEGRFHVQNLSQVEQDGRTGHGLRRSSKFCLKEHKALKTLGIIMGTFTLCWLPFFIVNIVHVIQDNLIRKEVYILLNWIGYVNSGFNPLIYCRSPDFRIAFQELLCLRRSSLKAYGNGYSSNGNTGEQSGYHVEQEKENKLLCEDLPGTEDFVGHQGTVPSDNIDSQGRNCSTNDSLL
LANA-H2A inh = blocks KSHV LANA binding to histone H2A/H2B. Q9QR71. cell-free LANA-H2A/H2B peptide, fluorescence polarization. inhibition, % (no concentration beside the values). hit rate 0.6% among 320,000. AID 2629; in the data active = inhibition mostly above about 10%, no sharp cut-off; inactive = mostly below about 6.7%;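 also: stock transfer was 7.5 nL into about 10 µL; 0% = median of vehicle wells and 100% = median of positive control wells; one replicate is shown; the record names a cut of 25% in any replicate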
Calb FLC = C. albicans growth modulation with fluconazole; growth inhibition, % (no concentration beside the values); AID 1979; hit rate 0.57% among 300,000; C. albicans CaCi-2 (fluconazole-resistant clinical isolate) + fluconazole, Alamar Blue growth, 48 h;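 active = most replicates above 75%; inconclusive = exactly half above 75%; inactive = most below 75%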;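 also: all wells also contain fluconazole at 8 µg/ml as a sub-toxic cotreatment; 0% = median of DMSO wells and 100% = median of geldanamycin control wells; wells of about 8 µL received 7.5 nL stock; the first replicate is given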
rRNA inh HTS OD600 = also measured in rRNA inh HTS; calls as there; OD600 change, %; measured here: OD600 growth;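 optical density of the mix in the first replicate; 0 = DMSO median and -100 = no signal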
rRNA inh HTS RFP = second read-out of rRNA inh HTS, no call of its own (marks repeat the call); RFP signal change, %; measured here: RFP humanized mutant strains;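 first replicate; 0 = DMSO median and -100 = no signal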
* = called active by the depositor; ? = inconclusive; . = not tested or not shown. The list is partial (hit frequency here may not be typical).

Sample of the layout, 2 compounds:
SMILES	T cruzi inh	Bfl-1 A1 inh	ALR H2O2 inh	Beta apoptosis	rRNA inh HTS	rRNA inh HTS OD600	rRNA inh HTS RFP	B2AR ag	LANA-H2A inh	Calb FLC
CC(=O)Nc1ccc(N2C(=O)c3ccc(S(=O)(=O)c4ccc(C(=O)O)cc4)cc3C2=O)cc1	1	1.2	.	-3	17	18	5.1	-6	-0.5	-18
CCN1CCN(CC(=O)Nc2cccc(C)c2)C(=O)C1=O	-12	0.3	.	-3	10	15	0.6	0	4.0	0

Results, from the first entry:
SMILES	T cruzi inh	Bfl-1 A1 inh	ALR H2O2 inh	Beta apoptosis	rRNA inh HTS	rRNA inh HTS OD600	rRNA inh HTS RFP	B2AR ag	LANA-H2A inh	Calb FLC
CC(=O)Nc1ccc(N2C(=O)c3ccc(S(=O)(=O)c4ccc(C(=O)O)cc4)cc3C2=O)cc1	1	1.2	.	-3	17	18	5.1	-6	-0.5	-18
CCN1CCN(CC(=O)Nc2cccc(C)c2)C(=O)C1=O	-12	0.3	.	-3	10	15	0.6	0	4.0	0
Nn1c(=O)c2ccccc2n2c(SCc3ccc(C(F)(F)F)cc3)nnc12	21	0.4	.	2	.	.	.	-5	-2.4	19
COc1ccc(OC)c(S(=O)(=O)Nc2ccc(C)c(C)c2)c1	9	0.1	-10	-4	.	.	.	-5	11	-10
CCOc1ccccc1C(=O)Nc1cccc(-c2ccc(N3CCOCC3)nn2)c1	23	-0.3	.	17	-10	-23	3.2	13	-4.7	13
COc1ccccc1NS(=O)(=O)c1cccc(C(=O)NCC(c2ccco2)N2CCCCC2)c1 (stereo not drawn)	1	0.5	.	-1	3	3	-1.2	-4	.	-6
CCn1c(COC(=O)CNC(=O)c2ccccc2F)nc2cc(S(=O)(=O)N(C)C)ccc21	17	0.8	1	-7	7	3	2.1	0	12	4
CC1CCN(c2ccccc2NC(=O)c2ccc(N3CCOCC3)c([N+](=O)[O-])c2)CC1	2	-0.2	-1	-12	9	13	-0.2	-1	-2.5	8
CCN(CC)c1ccc(/C=N/N2CCN(Cc3ccccc3)CC2)cc1	16	0.4	.	-1	-7	-1	2.5	-1	-4.1	-12
O=C(COc1ccccc1)N1CCN(C(=O)c2cccs2)CC1	-14	0.2	-1	.	.	.	.	-6	-2.2	20
CCCNC(=O)c1ccc(N2CCC3(CC2)CC(c2cccc(Br)c2)=NO3)c(NC(=O)c2cccc(OC)c2)c1	31	0.5	1	15	7	13	1.9	0	-10.0	-5
CC1CCCCC1NC(=S)NC(=O)c1ccccc1Cl (stereo not drawn)	.	0.3	6	1	7	9	1.3	16	-3.7	.
COc1ccc(S(=O)(=O)NCCSCc2ccco2)cc1Cl	19	-0.5	22	-3	.	.	.	7	4.1	10
CC(C)N(Cc1ccccc1)C(=O)COC(=O)c1cnccn1	-3	-0.2	-1	-3	10	9	1.9	-5	-0.7	2
CCCN1CCc2c(sc(NC(=S)NC(=O)c3ccccc3)c2C#N)C1	50	0.2	-7	3	22	4	0.1	-40	1.1	-10
O=C(NCc1ccco1)c1cccc2c1C(=O)c1ccc(N3CCCC3)cc1S2(=O)=O	.	-0.2	16	2	-2	1	-7.8	8	6.1	.
Cc1cccc(OCc2nnc(SCC(=O)N3c4ccccc4CCc4ccccc43)o2)c1	30	-0.2	-5	2	-7	10	7.4	6	-7.7	-2
CC(C(N)=O)N1c2cccc3cccc(c23)S1(=O)=O (stereo not drawn)	-1	-0.5	.	0	7	0	2.2	7	-1.5	3
CN(C)c1ccc(/C=N\NC(=O)CC#N)cc1	-11	0.6	67	-7	12	9	-1.8	1	-2.9	24
C(=N\c1ncnc2sccc12)/NOCc1ccccc1	-9	0.1	-21	-2	.	.	.	-7	1.2	6
CCCc1ccc(C(=O)CCC(=O)NNC(=O)c2ccncc2)cc1	5	-0.1	0	-1	6	0	4.2	-5	-6.1	5
O=C(CN1C(=O)COc2ccccc21)NCCCN1CCN(c2ccccc2F)CC1	3	-0.2	17	3	-1	2	0.2	5	-3.5	10
CC(C)Cn1c2c(c(O)c(C(=O)Nc3ncccc3O)c1=O)CCCC2	-2	0.3	-3	-1	.	.	.	-22	1.6	-5
CCCc1nnc(SCC(=O)Nc2ccccc2Cl)n1CC1CCCO1 (stereo not drawn)	-4	1.2	-7	-3	-2	7	-4.1	-5	-1.3	-4
COC(=O)c1cn(CC(=O)N2C(C)CCCC2C)c2ccccc12 (stereo not drawn)	-4	-0.6	2	-2	.	.	.	12	-4.0	1
O=C(Nc1ccc2c(c1)OCO2)c1ccc(COc2ccc3c(c2)CCC3)o1	12	-1.2	-7	-3	.	.	.	-12	-1.9	-1
COc1ccc(-c2csc(NC(=O)c3cccc(S(=O)(=O)N4CCN(C)CC4)c3)n2)cc1	31	-0.1	-1	.	.	.	.	2	-11	-1
Cc1onc(-c2c(F)cccc2Cl)c1C(=O)OCc1cnc(Cl)s1	22	0.2	1	2	-52	-54	-16	11	2.2	39
Cc1ccc(-c2csc3ncnc(Oc4cccc5ccc(C)nc45)c23)cc1	27	1.2	-9	-1	.	.	.	-6	-1.2	?
O=c1[nH]c(Nc2ccc(F)cc2)cc2ccccc12	-14	0.0	-21	-2	-3	4	0.4	9	-0.9	11
CCOc1ccc(N2CC(=O)N/C2=N\c2nc(C)cc(C)n2)cc1	-5	1.6	-3	5	.	.	.	0	-11	3
COc1ccc(NCc2nnc(SCCN3CCCCC3)n2-c2ccc(C)cc2)cc1	31	-0.4	.	-1	7	7	0.9	6	0.7	-5
COc1cc(NC(=O)CCNC(=O)Cn2cnc3ccccc3c2=O)cc(OC)c1OC	-12	0.6	-11	-3	.	.	.	30	4.2	-14
C=CCOc1ccc(/C=N/NC(C)=O)cc1OCC	-2	0.0	0	-4	18	12	0.3	5	-2.6	-14
S=C(Nc1ccccc1Cl)N1CCN(c2ccccn2)CC1	-10	-0.1	1	0	9	9	-1.2	0	-1.9	2
CC(C)(C)C1c2[nH]c3ccccc3c2CCN1CCCn1cccn1 (stereo not drawn)	26	-0.4	8	-6	.	.	.	-12	0.4	3
COc1ccc(N2CCN(C(=O)c3c(-c4c(F)cccc4Cl)noc3C)CC2)cc1	-6	0.1	33	3	-7	1	3.7	0	2.1	.
Oc1c(Br)cc(Br)cc1C=Nc1ccc2[nH]ncc2c1	3	0.0	0	-4	7	-3	6.8	5	0.0	12
COc1ccc(-n2ncc3c2CC(C)(C)CC3NC(=O)c2oc(C)cc2C)cc1 (stereo not drawn)	16	-0.2	0	-2	1	-11	-3.6	4	-2.8	2
O=C1CCCC2=C1C(c1ccc(Cl)cc1)N1C(=O)CCSC1=N2 (stereo not drawn)	-7	0.2	1	-4	.	.	.	3	2.1	4
CCCOc1ccc(N2C(=O)CC(NCCNc3ccc([N+](=O)[O-])cn3)C2=O)cc1 (stereo not drawn)	-10	-0.2	-6	0	-1	-10	9.6	-7	3.8	4
CC(C)(Oc1ccc(Cl)cc1)C(=O)NNC(=O)c1ccc(Br)o1	.	1.0	-3	-2	-8	-5	1.4	23	-2.4	9
O=C(Nc1ccc2ccccc2n1)c1ccccc1Br	10	-6.8	0	-4	-5	6	1.4	-7	-1.2	-7
O=C(Nc1ccccc1)C1C(c2ccccc2)C1(Cl)Cl (stereo not drawn)	-5	0.2	-2	6	-27	-61	1.7	3	0.6	-10
CC(Sc1nncs1)C(=O)Nc1ccc(S(=O)(=O)Nc2ncccn2)cc1 (stereo not drawn)	.	0.0	7	-3	7	4	0.0	-3	0.1	.
CCCCCCCC(=O)NNC(=O)CC(=O)Nc1ccccc1C(=O)O	-22	-0.2	1	-1	.	.	.	6	-9.6	-4
Oc1ccc(-c2[nH]ncc2-c2cccc3cccnc23)c(O)c1	-13	1.3	70	-3	.	.	.	-13	0.7	4
CCOCCCNC(=O)CNC(=S)N(Cc1ccccc1F)C1CCCCC1	26	-0.7	-9	0	.	.	.	5	4.5	4
COC(=O)c1ccc(/C=N/OCC(=O)Nc2cc(F)ccc2F)cc1	-13	-1.8	-3	-2	8	15	-17	2	-3.3	-2
CCC(Cc1ccccc1)NC(=O)/C=C/c1ccco1 (stereo not drawn)	2	1.2	22	1	4	9	1.7	-6	-1.7	1
COC(=O)c1ccc(NC(=O)c2ccc[n+]([O-])c2)cc1	4	-0.5	-3	-1	3	3	-1.0	2	7.4	3
COc1cccc(CN(C)C(=O)c2ccc(COc3ccc(Cl)cc3)cc2)c1OC	39	-1.4	-5	2	-4	-35	4.5	4	11	0
CCOc1ccc(N(CC(=O)NCCOc2ccccc2OC)S(=O)(=O)c2ccccc2)cc1	8	0.7	1	.	-8	-6	4.6	-6	-1.7	-8
COc1ccc2nc(N3CCC(C)CC3)c(C#N)cc2c1	11	0.5	-49	-7	.	.	.	12	-2.2	4
O=c1oc2ccc(C#CC3(O)CCCCC3)cc2cc1-n1cc(-c2ccsc2)nn1	.	-0.6	-7	4	11	4	2.2	5	5.1	.
COc1ccc(-c2cn[nH]c2N)cc1	0	0.7	91*	-6	.	.	.	-1	-7.1	-5
C=CCSc1ncnc2c1oc1nc3c(cc12)COC(C)(C)C3	-3	-0.2	-6	-1	14	7	1.3	4	2.1	7
O=C(NCc1ccccc1)C1=C[C@@H](c2ccccc2)C[C@@H](OCc2ccc(CO)cc2)O1	-3	-0.3	-24	1	-20	-23	12	-1	-5.8	-9
N#Cc1ccc(OCc2nnc(SCC(=O)c3ccccc3)n2-c2ccccc2)cc1	11	0.2	-2	0	.	.	.	-6	2.9	7
Cc1ccc(NC(=O)Nc2ccccc2C#N)c(Cl)c1	-9	-1.6	13	5	.	.	.	-17	-2.5	-5
The list continues:
SMILES	T cruzi inh	Bfl-1 A1 inh	ALR H2O2 inh	Beta apoptosis	rRNA inh HTS	rRNA inh HTS OD600	rRNA inh HTS RFP	B2AR ag	LANA-H2A inh	Calb FLC
C=CCNC(=S)NNC(=O)c1ccc(=O)n(Cc2ccccc2)c1	-9	0.0	16	-5	13	6	-2.0	5	4.7	-7
Cc1[nH]c(C)c(S(=O)(=O)N2CCN(c3ccc(Cl)cc3)CC2)c1C(=O)N1CCCC1	10	-0.1	28	-9	-4	6	5.4	-1	3.7	-4
C=CCNc1nc(-c2ccc([N+](=O)[O-])cc2)cs1	13	-0.5	3	0	-8	-9	-7.3	-3	7.8	-14
COc1cc(/C=C2\SC(=S)N(NC(C)=O)C2=O)ccc1OC(=O)c1ccco1	.	-5.7	98*	-7	.	.	.	-17	0.8	.
O=C(OCc1cccc(C(F)(F)F)c1)c1cc([N+](=O)[O-])ccc1N1CCOCC1	26	1.4	2	-4	-7	2	-1.4	16	1.2	0
COc1cccc(CSc2nnc(-c3ccncc3)n2N)c1	-3	0.9	-2	-1	10	20	1.9	0	0.0	-14
CCCCNC(=O)NC(C(=O)OC)C12CC3CC(CC(C3)C1)C2 (stereo not drawn)	24	-0.5	-3	-8	-3	-8	-0.3	15	-7.7	4
O=C(c1cc(-c2ccco2)on1)N1CCOCC1	12	1.0	0	-6	.	.	.	10	8.0	-1
Cc1oc2c(c1C(=O)NC(Cc1c[nH]c3ccccc13)C(=O)O)CCCC2 (stereo not drawn)	-26	0.6	-43	.	.	.	.	2	-3.3	5

Screening data (PubChem)
